# Cruzain inh noDet: blocks cruzain activity in detergent-free assay; P25779; purified cruzain, Z-FR-AMC fluorescence, no detergent; Potency, µM, without a hit: max response, negative = inhibition, hits mostly inhibitors; 2.3% of 200,000 active; AID 1476;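 further: plate controls were enzyme without inhibitor for no effect and buffer without enzyme for full effect; nearly all actives have a fitted effect of over 40% in size; top concentration of the series not given in the record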
# Target sequence (P25779 123-467 limits assumed): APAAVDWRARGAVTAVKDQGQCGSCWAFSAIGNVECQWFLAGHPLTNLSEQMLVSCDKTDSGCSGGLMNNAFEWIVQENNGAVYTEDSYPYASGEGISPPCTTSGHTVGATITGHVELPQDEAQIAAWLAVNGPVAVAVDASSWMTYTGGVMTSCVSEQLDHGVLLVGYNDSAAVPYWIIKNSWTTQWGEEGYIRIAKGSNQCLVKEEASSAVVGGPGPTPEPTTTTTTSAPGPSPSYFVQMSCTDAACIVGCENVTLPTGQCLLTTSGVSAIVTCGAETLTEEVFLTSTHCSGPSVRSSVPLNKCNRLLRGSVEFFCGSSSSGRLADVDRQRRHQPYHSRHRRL
#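 Purified cruzain at 1.5 nM, pre-incubated 15 min with compound at room temperature in 100 mM sodium acetate pH 5.5, 5 mM DTT, 0.00005% Triton X-100. Reaction started with 2 uM Z-FR-AMC; AMC fluorescence increase over 60 s gives rate.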
# SARS PLpro yeast: blocks SARS-CoV papain-like protease in a yeast assay. S. cerevisiae expressing SARS-CoV PLpro, growth rescue; control for the full effect not named in the record. Potency, µM (highest dose often 32.9 µM), inactives show at the highest dose activity, positive = growth rescue. 0.19% of 330,000 active. AID 485353; active means well fitted rising curve with a large enough effect; inconclusive means small, poorly fitted or top-dose-only effect; inactive means no such curve, though single readings can be large or run the other way; further: 0% is about no effect; nearly all actives have a fitted effect of over 55% in size; growth read by luminescence after 48 h
# MARV entry inh: blocks Marburg virus binding to or entry into cells; Marburg virus pseudotyped entry inhibition, cell reporter; control for the full effect not named in the record; about a third of the inactives were read at about 46 µM; Potency, µM (titrated, usually from 37.8 µM), inactives show at the highest dose activity change, negative = inhibition, hits mostly inhibitors; 1.8% of 300,000 active; AID 540276; active = well fitted inhibition curve with a large enough effect; inconclusive = small, poorly fitted or top-dose-only effect, or effect the other way; inactive = flat fitted curve, though single readings scatter; tested in HEK293 cells; about a fifth of its hits are not listed in these tables; further: on the % scale 0 is the no-effect control and ±100 the full control effect; luciferase read-out
# Cruzain inh Det: cruzain (T. cruzi) inhibition with detergent. 0.43% of 200,000 active. purified cruzain, Z-FR-AMC fluorescence, 0.01% Triton. Potency, µM, without a hit: max response, negative = inhibition, most hits filed as inhibitors;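 further: plate controls were neutral wells for no effect and buffer without enzyme for full effect; nearly all actives have a fitted effect of over 40% in size; top concentration of the series not given in the record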
#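 Enzyme 1.5 nM, Z-FR-AMC 2 uM, NaOAc 100 mM pH 5.5, DTT 5 mM, Triton X-100 0.01%; 15 min RT compound preincubation; kinetic ex360/em450, 60 s delta.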
# LASV entry inh: inhibitors of Lassa virus binding or cell entry. Lassa virus pseudotype entry inhibition, cell reporter; control for the full effect not named in the record. Potency, µM (series often up to 37.9 µM), inactives show top-dose activity change, negative = inhibition, most hits filed as inhibitors. 1.2% of 300,000 active; active means well fitted inhibition curve with a large enough effect; inconclusive means small, poorly fitted or top-dose-only effect, or effect the other way; inactive means flat fitted curve, though single readings scatter; tested in HEK293 cells; further: on the % scale 0 is the no-effect control and ±100 the full control effect; nearly all actives have a fitted effect of over 50% in size; luciferase read-out
# NS1 function inh: inhibitors of influenza NS1 protein function | S. cerevisiae slowed by influenza A NS1, growth recovery by OD600 | Potency, µM (highest dose often 46.1 µM), without a hit: top-dose activity, positive = more growth | 0.4% of 270,000 active; active means well fitted rising curve with a large enough effect; inconclusive means small, poorly fitted or top-dose-only effect; inactive means no such curve, though single readings can be large or run the other way; further: nearly all actives have a fitted effect of over 50% in size
#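 Recovery from NS1-induced slow growth read by OD600 in budding yeast switched to galactose assay medium (pH 6.0, -URA) at 1:100 dilution. Compound 23 nl per well; the matching strain lacking NS1 serves as control.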
# StopGo reporter: lowers the luciferase signal of an FMDV 2A StopGo reporter; human cells with a luciferase reporter of 2A StopGo recoding; control for the full effect not named in the record; Potency, µM (doses to about 57.9 µM), inactives show at the highest dose signal change, negative = less light; 1.2% of 410,000 active; AID 1159524; active = well fitted falling curve with a large enough effect; inconclusive = small, poorly fitted or top-dose-only effect; inactive = no such curve, though single readings can be large or run the other way; tested in HEK293T cells; further: on the % scale 0 is the no-effect control and ±100 the full control effect; nearly all actives have a fitted effect of over 45% in size; luciferase light after 4 h
# RE007 growth inh: less growth of the S. pombe RE007 Vpr strain; Potency, µM (highest dose often 92.2 µM), without a hit: at the highest dose activity change, negative = less growth; S. pombe RE007 Vpr strain, BacTiter-Glo ATP luminescence, 24 h; control for the full effect not named in the record; 0.21% of 360,000 active; active = well fitted falling curve with a large enough effect; inconclusive = small, poorly fitted or top-dose-only effect; inactive = no such curve, though single readings can be large or run the other way;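 further: on the % scale 0 is the no-effect control and ±100 the full control effect; nearly all actives have a fitted effect of over 50% in size; the assay follows cell death caused by Vpr and the record does not say whether a fall means rescue or toxicity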
#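 Fission yeast RE007 carrying one integrated HIV-1 vpr copy, seeded at OD 0.01 in PMG+AL medium with 23 nL pinned compound. Grown 24 h at 30 degrees; viability read by BacTiter-Glo luminescence after 5 min.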
# * hit, by the source's call; ? = inconclusive; . = no result given; & = joins results of further samples; [ ] = remark or other dose. Unless noted, the call rests on the fitted dose curve; in most records, active means well fitted curve in the direction sought with a large enough effect; inconclusive means small, poorly fitted or top-dose-only effect, or another doubt; inactive means no such curve, though single readings can be large; an effect the other way counts as inactive or inconclusive. Potency means the concentration at half of the fitted maximal effect.
SMILES,Cruzain inh noDet,SARS PLpro yeast,MARV entry inh,Cruzain inh Det,LASV entry inh,NS1 function inh,StopGo reporter,RE007 growth inh
CCCCn1c(=O)c(-c2ccccc2)c(O)c2ccccc21,-4%,2%,23%,-1.8%,-1%,-50%,8%,-22%
CCCCn1c(=O)c2c(O)cc(=O)oc2c2ccccc21,-12%,-5%,?,0.2%,-1%,-76%,-21%,-13%
CC(C)(C)CC(C)(C)NC(=S)NC1CCN(Cc2ccccc2)CC1,-5%,-2%,?,-2.2%,?,3%,-28%,3%
CCCCN(C)C(=O)C1CCN(Cc2cccnc2)CC1,.,6%,20%[46.1 µM],.,25%[46.1 µM],?,-17%,1%
COC(=O)c1ccc(/C=C/C(=O)O)cc1,.,0%,.,.,.,-2%,-15%,-10%
COc1ccc(S(=O)(=O)N2CCN(C(=O)CCC3CCCC3)CC2)cc1,-8%,-2%,3%[46.1 µM],-1.1%,8%,-41%,?,18%
CCOC(=O)C1=C(O)C(Nc2nccs2)(C(F)(F)F)N=C1C (stereo not drawn),-9%,-1%,-3%,1.2%,3%,1%,-4%,16%
CN1C(=O)NC(NS(=O)(=O)c2ccc(N)cc2)(C(F)(F)F)C1=O (stereo not drawn),.,-1%,11%[46.1 µM],.,2%,.,-17%,6%
COc1ccc(S(=O)(=O)N2CCOCC2)cc1NC(=O)COC(=O)CC1CC2CCC1C2 (stereo not drawn),.,-1%,13%[46.1 µM],.,4%[46.1 µM],.,4%,26%
CC(=O)OCCNc1cc(N2CCN(C)CC2)c2noc3c2c1C(=O)c1ccccc1-3,-3%,-35%,.,-6.6%,.,-2%,?,-10%
CCc1ccc(NC(=O)Cn2ncc3c4ccccc4n(C)c3c2=O)cc1,-1%,0%,-9%&-9%[46.1 µM],-2.0%,?,0%,-8%&2%,-10%
COc1ccc(-c2nnc(CSc3nc4ccccc4c(=O)n3C)o2)cc1OC,?,-1%,?,-0.4%,-26%,-49%,11%,0%
COc1ccccc1/C=C/CN1CCCC(CCC(=O)NCc2ccccc2F)C1 (stereo not drawn),.,-2%,6.3µM*,.,?,0%,-13%,4%
CCN(CC)CCCn1c2c(c(SCC(=O)Nc3ccc4c(c3)OCO4)nc1=O)CCC2,.,-1%,?,.,9%,.,18%,5%
CC1CCN(C(=O)CN(c2ccc(Cl)c(C(F)(F)F)c2)S(C)(=O)=O)CC1,?,-4%,15%,-1.6%,-10%,4%,.,4%
O=C(O)C1Nc2c(Cl)cc(Cl)cc2C2C=CCC12 (stereo not drawn),.,7%,-25%[46.1 µM],.,-3%[46.1 µM],10%,-26%,-30%
N#CC(c1cccc(C(F)(F)F)c1)(c1ncc(C(F)(F)F)cc1Cl)N1CCOCC1 (stereo not drawn),27%,-23%,-20%,-9.7%,?,-27%,-24%,6%
CC(=O)c1ccc(OCCNS(=O)(=O)c2ccc(-n3cnnn3)cc2)cc1,.,4%,-16%[46.1 µM],.,-23%[46.1 µM],6%,-8%,-3%
Cc1cc(NC(=O)CSc2nc3ccccc3c(=O)n2Cc2ccc(F)cc2)no1,-12%,2%,-7%,2.7%,-23%,-1%,15%,1%
CCOc1ccc(-c2n[nH]c3c2C(c2cccs2)N(c2ccc(Br)cc2)C3=O)cc1 (stereo not drawn),?,.,?,-2.3%,?,.,?,.
Oc1ccc(Br)cc1C=Nc1ccc2[nH]ncc2c1,?,-13%,2%,-8.5%,-1%,0%,22%,-9%
Cc1nc(C)c(-c2ccc(SCC(=O)Nc3ccc(C)c(Cl)c3)nn2)s1,.,4%,-4%,.,0%,4%,?,-7%
COC(=O)c1ccc(S(=O)(=O)c2ccc(C(=O)OC)s2)s1,-8%,-1%,24%,2.9%,-14%,-10%,.,6%
COc1ccc(NC(=O)c2nn(C)cc2[N+](=O)[O-])cc1,.,1%,.,.,.,2%,30%[activator],-6%

# Single records (already shown). Order of screens: Cruzain inh noDet	SARS PLpro yeast	MARV entry inh	Cruzain inh Det	LASV entry inh	NS1 function inh	StopGo reporter	RE007 growth inh
# COc1ccc(S(=O)(=O)N2CCN(C(=O)CCC3CCCC3)CC2)cc1 in the list: -8%	-2%	3%[46.1 µM]	-1.1%	8%	-41%	?	18%
# Cc1cc(NC(=O)CSc2nc3ccccc3c(=O)n2Cc2ccc(F)cc2)no1 in the list: -12%	2%	-7%	2.7%	-23%	-1%	15%	1%

# Additional structures:
SMILES,Cruzain inh noDet,SARS PLpro yeast,MARV entry inh,Cruzain inh Det,LASV entry inh,NS1 function inh,StopGo reporter,RE007 growth inh
CCN(CC)c1ccc(NC(=O)c2cc(OC)cc(OC)c2)c(C)c1,-2%,-10%,?,1.1%,?,-1%,-21%,-28%
COc1ccc(CCNC(=O)c2cc(-c3ccc(C)c(C)c3)nc3ccccc23)cc1OC,-2%,.,.,8.6%,?,.,2%,.
Cc1cc(=O)n2nc(N3CCCC3C(=O)NCCCN3CC(C)CC(C)C3)sc2n1 (stereo not drawn),-8%,-3%,8%,7.6%,17%,?,0%,0%
CCCCN(C(=S)NC(=O)c1ccccc1)c1c(N)n(Cc2ccccc2)c(=O)[nH]c1=O,-13%,-9%,-1%,-4.9%,?,-22%,0%,6%
CC12CN(NC(=O)c3ccccc3F)C3(C#N)CC1CCC23C (stereo not drawn),.,0%,8%[46.1 µM],.,-7%,.,3%,1%
CC1CC1c1ccc(/C=C(\C#N)C(=O)Nc2ccc(Cl)cc2Cl)o1 (stereo not drawn),1%,9%,?,-5.7%,-6%,1%,18%,-3%
O=C(O)C1Sc2[nH]c(=O)sc2C2c3cc(Br)ccc3OC(=O)C12 (stereo not drawn),.,-3%,1%[46.1 µM],.,21%,-3%,-23%,-12%
COc1ccc(-c2cn3cccnc3n2)cc1NC(=O)Nc1cc(C)ccc1C,?,5%,?,-4.2%,?,.,5%,.
COc1ccccc1N1C(=S)N=C(Nc2c(C)cccc2C)C12CCCC2,.,1%,?,.,-25%[46.1 µM],2%,-6%,2%
COc1ccc(C(=O)Nc2ccc(C(=O)OCC(=O)c3cccc4ccccc34)cc2)cc1,1.6µM*,12%,-3%,-0.3%,3%,-6%,-36%,9%
O=[N+]([O-])c1ccc(CS(=O)Cc2ccccc2)cc1 (stereo not drawn),-5%,.,25%,-1.3%,10%,0%,-10%,-11%
NC(=S)c1ccc(C(N)=S)o1,-8%,3%,?,-4.7%,4%,-4%,.,6%
COc1ccc(-n2c(Cc3cccn3C)nnc2SCC(=O)Nc2ccc(Cl)cc2)cc1,1%,3%,-5%,2.6%,.,10µM*,1%,-12%
COc1ccccc1NC(=O)CSc1nnc(-c2ccoc2C)n1C,.,-2%,1%[46.1 µM],.,-1%,1%,-16%,15%
COc1ccc(Nc2oc(-c3ccco3)nc2S(=O)(=O)c2ccc(F)cc2)cc1,25µM*,-10%,-14%,-25%,-27%,?,-13%,-1%
COc1ccc(S(=O)(=O)N(C)CC(=O)Nc2ccccc2OC)cc1C,-13%,-1%,-2%[46.1 µM],-9.8%,14%,-12%,?,-16%
O=[N+]([O-])c1cccc2c([N+](=O)[O-])cccc12,6%,-5%,.,-5.6%,.,.,-7%,-4%
O=C(NNC(=O)c1ccncc1)Nc1ccc([N+](=O)[O-])cc1,.,0%,-17%[46.1 µM],.,17%[46.1 µM],.,-16%,2%
O=C1CC(c2ccc(F)cc2)c2c(n3c(nc4ccccc43)[nH]c2=O)N1 (stereo not drawn),14%,.,?,0.5%,9%[46.1 µM],.,-8%,.
CCC(=O)N1CCN(c2nc3ccccc3s2)CC1,-2%,-9%,-12%,-2.7%,6%,-5%,-3%,-4%
COc1ccc(NC(=O)/C(C#N)=C/c2c(C)nn(-c3ccc(F)cc3)c2Cl)cc1Cl,?,1%,5%,3.9%,-7%,12%,?,-8%
COCc1cc(=O)[nH]c(Nc2nc3ccccc3o2)n1,4%,1%,?,8.1%,?,-36%,-13%,-9%
COc1ccc(Br)cc1/C=C/c1ccc2cccc(O)c2n1,.,2%,-1%[46.1 µM],.,-20%[46.1 µM],4%,-15%,4%
CCNC(=O)NC(=O)CSc1ccc2ccccc2c1,.,-6%,?,.,?,2%,-14%,3%
O=C(Nc1nc(-c2ccncc2)cs1)c1ccc(F)cc1,.,1%,.,.,.,10%,-2%,3%
CCN(CC)C(=O)C1CCN(S(=O)(=O)c2ccc3oc4ccccc4c3c2)CC1,?,-3%,?,-4.2%,-27%,19%,.,9%
c1ccc(C2NCCc3[nH]cnc32)cc1 (stereo not drawn),.,-3%,.,.,.,-5%,14%,7%
CCOC(=O)c1c(-c2ccccc2)oc2ccc(NS(=O)(=O)c3ccc(C)cc3C)cc12,16µM*,.,?,-1.3%,-15%[46.1 µM],.,52%[activator],.
CCn1c(S(=O)(=O)O)nc2ccccc21,.,-1%,.,.,.,-1%,0%,11%
O=C(Nc1ccccc1[N+](=O)[O-])c1cncc(Br)c1,.,-1%,10%,.,12%,.,5%,-8%
CN(C)c1ccc(N=Nc2cccc3ccoc23)cc1,-6%,-4%,.,4.0%,.,-19%&-5%,41%[activator],.
COCc1c(C#N)c(NCCc2ccc(F)cc2)nc(C)c1[N+](=O)[O-],-10%,12%,-11%,-5.4%,-16%,2%,-18%,3%
CCSc1ncccc1-c1nc2ccccc2[nH]1,-10%,-21%,8%,-6.5%,6%,-21%,32%[activator],?
C=CCNC(=O)C1(S(=O)(=O)c2ccccc2)CC=CC1,.,0%,.,.,.,13%,5%,-28%
COc1ccc(C(=O)OCc2ccccc2F)cc1S(=O)(=O)N1CCCC1,.,-5%,?,.,-11%,.,-2%,2%
O=C(Nc1ccc(S(=O)(=O)N2CCCC2)cc1)c1ccc(OCC2CCCO2)cc1 (stereo not drawn),.,-4%,?,.,-6%,2%,18µM*,37%
Cc1cccc(Nc2cc(C)nc(-n3nc(C)cc3C)n2)c1,0%,.,.,1.1%,?,.,-12%,.
COc1cccc(Nc2ccc3cc(S(=O)(=O)N4CCC(C)CC4)ccc3n2)c1,4%,.,.,-3.8%,-29%[46.1 µM],.,-15%,.
Cc1ccc2nc3c(c(Nc4cccc(O)c4)c2c1)CCC3,.,-2%,.,.,.,-1%,-14%,-9%

# Assay outcomes as filed in PubChem BioAssay.
